# Mtb growth = Confirmatory growth inhibition assay against Mycobacterium tuberculosis H37Rv, potency (AID 1949) | most inactive calls were filed without a number and no value below 0 was filed | inhibition, % at 10 µg/mL, or IC50 in µg/mL where a hit was titrated | 1.6% of 100,000 active;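 active means confirmed in a dose series; inconclusive means about 50% or more but not retested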;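 further: bacteria grown 7 days with compound before Alamar blue readout; 0% = untreated bacteria and 100% = reference antibiotic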
# * = called active by the depositor; i = inactive; ? = inconclusive. The list is partial; the hit share may differ from the screen's.
compound,Mtb growth
COc1ccc(-n2c(SCC(=O)Nc3ccc(Br)cc3F)nnc2-c2ccncc2)cc1,i
N#Cc1cc2c(nc1SCc1cccnc1)CCCCC2,4%
CCc1ccc2oc(-c3ccc(NC(=O)COc4ccccc4C)cc3)nc2c1,i
CC(=O)Oc1cccc(C(=O)Nc2ccc(-c3nc4ccccc4s3)cc2)c1,i
COc1cc(OC)c(NC(=O)c2cc(C)cc(C)c2)cc1Cl,46%
C=CCc1cc2c(oc(=O)c3ccccc32)c(C)c1O,24%
Cc1cc(Nc2ccc(Cl)c(Cl)c2)n2ncnc2n1,i
OCCNCCOc1ccc(Cl)c(Cl)c1,i
CCOC(=O)C1=C(O)CC(C(=O)OCC)=C(O)C1,5%
Cn1nc([N+](=O)[O-])nc1Sc1nnc(-c2cccnc2)o1,2.5µg/mL*
COc1ccc(CCCc2nnc(SCC(=O)Nc3cc(Cl)cc(Cl)c3)n2C)cc1,i
COc1ccc(CNCC2(c3ccccc3)CCCC2)c(OC)c1,7%
CCn1c(CCNC(=O)c2ccc(OC)cc2)nnc1SCC(=O)c1ccc(OC)cc1,i
COC(=O)c1ccc(NS(=O)(=O)N(C)C)cc1,i
COc1cc(C=O)c(Br)cc1OCC(=O)O,i
Cc1ccc(NCc2nc3ccccc3n2C)cc1,i
Cc1cc(Br)cc(C)c1NC(=O)c1cccs1,1%
CC(=O)Nc1ccccc1Sc1ccccc1,i
CCCN(CCC)C(=O)c1c(NC(=O)c2ccccc2F)sc2c1CCCCC2,i
O=C(O)CCCN1C(=O)c2cccc3c(Br)ccc(c23)C1=O,i

compound,Mtb growth
CCC(C)Cn1c(COc2ccc(OC)cc2)nc2ccccc21 (stereo not drawn),i
O=C(CCN1C(=O)c2ccccc2C1=O)Nc1sc2c(c1C(=O)NCCc1ccccc1)CCC2,i
O=c1c2c3c(sc2n2c(=S)[nH]nc2n1-c1cccc(Cl)c1)CCC3,i
CCOC(=O)Nc1ccc(Br)cc1F,i
CNC(=O)CN(c1ccc(F)cc1)S(=O)(=O)c1ccc(OC)c(OC)c1,i
O=C(Cn1c2ccccc2n2nc(-c3cccs3)nc12)c1ccccc1,i
CC1=C(C(=O)N(C)C)C(c2ccc(C)cc2)NC(=S)N1 (stereo not drawn),i
CCOc1ccc(S(=O)(=O)NCCSC(C)(C)C)cc1,i
CCc1ccccc1NC(=O)c1cnn2c(C(F)F)cc(-c3ccc(OC)cc3)nc12,0%
Nc1ccccc1C(=O)Cc1ccccc1,0%
C=C(C)c1cccc(C(C)(C)NC(=O)N2CCC(C(=O)OCC)CC2)c1,i
COc1ccc(C)cc1N(CC(=O)Nc1ccccc1C(C)C)S(C)(=O)=O,i
CC(Nc1cc(N2CCN(C(=O)C(C)(C)C)CC2)ccc1[N+](=O)[O-])c1ccccc1 (stereo not drawn),i
CCOc1ccc(NC(=O)CSc2nnc(Cc3ccc(OC)cc3)o2)cc1,43%
COc1ccc(CCNC(=S)N2CCc3ccccc3C2)cc1OC,1%
COc1cc(C(=O)Nc2ccc(Cl)cc2Cl)ccc1OCc1ccccc1,2%
Cc1ccc(C)c(Nc2nnc(-c3ccccc3)c3ccccc23)c1,8%
Cc1noc(C)c1C(=O)NCc1ccccc1F,i
COC(=O)C1CCCCN1C(=O)c1cc(OC)c(OC)c(OC)c1 (stereo not drawn),4%
CCn1c(=O)n(CC)c2cc([N+](=O)[O-])c(N3CCN(S(=O)(=O)c4ccc(NC(C)=O)cc4)CC3)cc21,i

compound,Mtb growth
COc1ccc(Cc2nnc3c4cnn(C)c4ncn23)cc1,0%
Cc1ccc(S(=O)(=O)Nc2ccccc2C(=O)NCC2CCCO2)cc1 (stereo not drawn),i
CCOc1ccccc1CNCc1cccs1,i
O=C(CSCCO)Nc1ccc(S(=O)(=O)N2CCCCC2)cc1,i
CCOC(=O)c1cnc2c(Cl)cc(Cl)cc2c1NCc1ccco1,1%
O=C(CSc1nnc(CCc2ccccc2)n1-c1ccccc1)N1CCCCC1,1%
CCOC(=O)C1=C(N)Oc2n[nH]c(C)c2C12C(=O)N1c3c(cc(C)cc32)C(C)CC1(C)C (stereo not drawn),i
Cc1nc2ccccc2c2c1C(=O)N(C)C2=O,2%
Cc1ccc(C(C)C)c(OCCNCc2ccccc2)c1,i
S=C(Nc1ccccc1)Nc1ccc(NC(=S)Nc2ccccc2)cc1,i
COC(=O)c1ccc(C(=O)OC)c(NC(=S)N2CCCC(CO)C2)c1 (stereo not drawn),i
O=C(NCC1CCCO1)c1cnc(-c2ccccc2)nc1 (stereo not drawn),i
CCOC(=O)C(=O)Nc1ccc(Br)cc1C,i
COc1ccc(CCCc2nnc(SCC(=O)Nc3cc(Cl)ccc3Cl)o2)cc1C,i
NC(=O)c1ccc(NC(=O)C2CCN(S(=O)(=O)c3ccc(Br)cc3)CC2)cc1,i
CCOC(=O)CNC(=O)c1cc(OCC)c(OCC)c(OCC)c1,i
CC(C)(C#N)NC(=O)C(=O)c1c(-c2ccccc2)cc2ccccn12,i
CCC(=O)c1ccc(OCCCCn2cnc3ccccc32)cc1,i
CC1(C(=O)O)CC(=O)N=C2C=CC(Cl)=CN21 (stereo not drawn),0%
O=C(CN1CCCCC1)Nc1cccc(Br)c1,i

# Four entries from above, set out differently.
Cc1ccc(S(=O)(=O)Nc2ccccc2C(=O)NCC2CCCO2)cc1 (stereo not drawn)
- Mtb growth = i

Cn1nc([N+](=O)[O-])nc1Sc1nnc(-c2cccnc2)o1
- Mtb growth = 2.5µg/mL*

COC(=O)C1CCCCN1C(=O)c1cc(OC)c(OC)c(OC)c1 (stereo not drawn)
- Mtb growth = 4%

CCOC(=O)C1=C(N)Oc2n[nH]c(C)c2C12C(=O)N1c3c(cc(C)cc32)C(C)CC1(C)C (stereo not drawn)
- Mtb growth = i

# Next section.
compound,Mtb growth
S=c1[nH]nc(COc2cccc(Br)c2)n1-c1ccccc1,1%
CCOC(=O)c1sc(NC(=S)Nc2ccsc2C(=O)OC)c(C(=O)OCC)c1C,i
CCCNC(=S)NC(=O)c1ccc(OC)c(OC)c1,i
O=C(NC(=S)Nc1ccc(Cl)cc1)c1cc2ccccc2o1,i
CCOc1ccc(NC(=O)CCC(=O)c2ccc(F)cc2)cc1,i
CCOc1ccc(S(=O)(=O)Nc2cccc(F)c2)cc1,6%
CCOC(=O)c1cc(C(C)C)sc1NC(=O)C1C2CCC(C2=C(C)C)C1C(=O)O (stereo not drawn),2%
CC(=O)Nc1nnc(SCC(=O)Nc2c(C)cccc2C)s1,2%
N#Cc1ccccc1COC(=O)c1ccc(F)cc1,0%
N#Cc1c(SCC(=O)Nc2nccs2)nc(N2CCOCC2)c2c1CCCC2,i
Cn1c(=O)c2c(nc(SCC(=O)Nc3ccc(F)cc3F)n2Cc2ccccc2)n(C)c1=O,i
CCC(=O)Oc1ccc(C(=O)Nc2ccc(C)cc2)cc1,i
CC(Oc1cccc(Br)c1)C(=O)NCc1ccco1 (stereo not drawn),i
O=C(CN(Cc1ccccc1F)S(=O)(=O)c1ccc(Cl)cc1)N1CCc2ccccc2C1,i
Cn1c(SCC(=O)N2CCN(c3ccccc3)CC2)nnc1-c1cccc([N+](=O)[O-])c1,i
CCC1(C)Cc2c(sc3nnn(CC(=O)Nc4ccc(OC)cc4OC)c(=O)c23)CO1 (stereo not drawn),i
COc1cccc(C2=CC(c3cccc(Cl)c3)n3ncnc3N2)c1 (stereo not drawn),9%
COc1ccc([N+](=O)[O-])cc1NC(=O)CN(c1ccc(I)cc1)S(=O)(=O)c1ccccc1,3%
COCCn1c(Cc2ccccc2)nnc1SCC(=O)Nc1ccccc1,i
CCOc1ccc(NC(=O)CCSc2ccc(C)cc2)cc1,25%

compound,Mtb growth
COc1ccc(S(=O)(=O)N(CC(=O)Nc2cc(Cl)cc(Cl)c2)c2ccccc2)cc1OC,i
CCCCC(=O)Nc1ccc(NC(=S)NC(=O)c2ccccc2Br)cc1OC,i
CC(=O)c1ccc(OC(=O)c2ccccc2Br)cc1,i
COc1cccc(N(CC(=O)Nc2c(C)cc(C)cc2C)S(=O)(=O)c2ccc(C)cc2)c1,i
COc1ccccc1-c1nc(-c2cccnc2)no1,i
O=C1CC(c2ccccc2)Sc2nc(-c3ccc(Cl)c(Cl)c3)nn21 (stereo not drawn),6%
O=C(Nc1ccccc1C(F)(F)F)N1CCN(C/C=C/c2ccccc2)CC1,3%
CC(=O)NC1(c2ccccc2)CC(C)N(C)CC1C (stereo not drawn),0%
CCOc1ccc(-n2c(-c3ccc(C)cc3)nc3ccccc3c2=O)cc1,4%
Cn1c(SCC(=O)Nc2nc3ccccc3s2)nnc1-c1ccc(Br)cc1,3%
C=CCn1c(SCC(=O)Nc2ccccc2F)nnc1-c1ccc([N+](=O)[O-])cc1,i
COCc1nc2ccccc2n1C(C)C,i
COc1ccc(NC(=O)c2ccccc2NC(=O)Cc2ccc(Cl)cc2)cc1,i
COc1cc(S(=O)(=O)N2CCN(c3c(C)cccc3C)CC2)c(OC)cc1Br,1%
CC(=O)c1ccc(COc2ccc(C3CCCCC3)cc2)cc1,16%
CCOCCCNC(=O)CN(C)S(=O)(=O)c1ccc(F)cc1,i
CCCNC(=O)c1ccccc1-c1nc(-c2ccc(Cl)cc2)no1,i
Cc1ccc(OCC(=O)Nc2ccc3oc(-c4ccccc4)nc3c2)c(C)c1,i
COc1ccccc1NC(=O)CCc1ccc(S(=O)(=O)NCC(C)C)cc1,i
O=c1[nH]c(SCCN2CCOCC2)nc(O)c1-c1ccccc1,?

compound,Mtb growth
C#CCOc1ccc(CNCc2ccccc2)cc1,i
CCc1ccc(OCCCC(=O)Nc2ccc(Cl)cc2C)cc1,i
Cc1ccc(S(=O)(=O)Nc2ccc([N+](=O)[O-])cn2)cc1,i
COc1ccc(C2(C(=O)Nc3ccc(Cl)c(Cl)c3)CCOCC2)cc1OC,i
O=C(Cn1nnc2ccccc21)c1ccc(Cl)cc1,4%
O=C(Nc1cc(Cl)ccc1O)C1CCCO1 (stereo not drawn),i
COC(=O)C(CCSC)NC(=O)c1ccc(Cl)cc1 (stereo not drawn),i
CCOC(=O)C1CCN(C(=O)CN(c2ccc(OC)c(Cl)c2)S(=O)(=O)c2ccccc2)CC1,i
CCn1c(SCC(=O)Nc2ccc(Br)cc2C)nnc1-c1cccc(C)c1,i
CCOC(=O)c1sc(NC(=O)c2oc3ccc(C)cc3c2C)c(C(=O)OCC)c1C,i
O=C(CCCC(=O)N1CCCc2ccccc21)N1CCCc2ccccc21,i
O=c1[nH]cnc2sc3c(c12)CCCCC3,i
CC1(C)Cc2nc3sc(C(=O)O)c(N)c3cc2CO1,i
COc1cc(C=O)ccc1OCC(=O)N1CCc2ccccc21,i
CC(C)c1ccc(-c2csc(NC(=O)c3cccs3)n2)cc1,41%
N#C/C(=C\c1ccc(OCC(=O)Nc2ccccc2)cc1)c1nc2ccccc2s1,1%
CSc1cccc(NC(=O)c2ccccc2N(C)S(=O)(=O)c2ccc(C)cc2)c1,i
CCc1ccc(CNc2ccc(O)cc2)cc1,i
O=C(Nc1sc2c(c1C(=O)NCc1cccnc1)CCCC2)c1ccco1,2%
Cc1cc(OCC(=O)Nc2ccc(Cl)cc2Cl)cc(C)c1Br,i

# In the list so far, these have an NH in an aromatic ring:
compound,Mtb growth
O=c1c2c3c(sc2n2c(=S)[nH]nc2n1-c1cccc(Cl)c1)CCC3,i
CCOC(=O)C1=C(N)Oc2n[nH]c(C)c2C12C(=O)N1c3c(cc(C)cc32)C(C)CC1(C)C (stereo not drawn),i
S=c1[nH]nc(COc2cccc(Br)c2)n1-c1ccccc1,1%
O=c1[nH]c(SCCN2CCOCC2)nc(O)c1-c1ccccc1,?
O=c1[nH]cnc2sc3c(c12)CCCCC3,i

# (further entries)
compound,Mtb growth
Cc1ccc(S(=O)(=O)N(Cc2ccco2)CC(O)Cn2cc(C=O)c3ccccc32)cc1 (stereo not drawn),14%
Cc1ccc(CSCC(=O)Nc2ccc(C)cc2C)cc1,i
Cc1ccc(SCCC(=O)Nc2cccc(N(C)S(C)(=O)=O)c2)cc1,14%
Cc1ccc(C)n1-c1ccc(N2CCOCC2)nc1,2%
CCOCCOC(=O)C1=C(C)NC2=C(C(=O)CC(c3cccs3)C2)C1c1cccs1 (stereo not drawn),28%
COC(=O)c1sccc1NC(=O)c1cc(C)cc(C)c1,i
CCCn1nnnc1NCc1ccc(OCc2cccs2)c(OC)c1,i
Cc1cc(C(=O)Nc2ccc(CC(=O)O)cc2)cs1,i
COc1cc(OC)cc(C(=O)Nc2nc(-c3ccc(Br)cc3)cs2)c1,?
COc1ccc(CSc2n[nH]c(C)n2)cc1,i
O=C(CN1CCOCC1)Nc1sc2c(c1C(=O)Nc1ccc(Cl)cc1)CCC2,i
CCCCN(C)CC(=O)Nc1sc2c(c1C(=O)OCC)CCC(C)C2 (stereo not drawn),3%
O=C1OC(c2ccccc2)C2(CCCC2)C(=O)C12CCCC2 (stereo not drawn),i
COC(=O)Nc1sccc1C(=O)NCCc1ccc(OC)c(OC)c1,i
CCc1cccc(CC)c1NC(=O)CSc1nnc(-c2cccc(N)c2)n1CC,i
Cc1cc(C)c(S(=O)(=O)NC(C)(C)CO)cc1N(C)S(=O)(=O)c1ccccc1,i
O=[N+]([O-])c1ccc(O)c(C2=NNC(c3ccc(Cl)cc3)C2)c1 (stereo not drawn),?
CCCCC(=O)Nc1ccc(NC(=O)c2ccc(OC)c(Cl)c2)cc1OC,i
O=C(COC(=O)c1ccc2c(c1)OCCO2)c1ccc(F)cc1,i
N#C/C(=C/c1ccc[nH]1)c1ccc(C#N)cc1,i
Cc1cc(Cl)ccc1NC(=S)NCc1ccc(S(N)(=O)=O)cc1,i
c1ccc(Cn2c(NCc3ccncc3)nc3ccccc32)cc1,i
